Rango complex inh: inhibitors of Rango-importin beta complex formation | Potency, µM (highest dose often 92.2 µM), for inactives: at the highest dose inhibition of complex formation | AID 540263 | Rango CFP/YFP FRET sensor + importin beta, 45 min | Q14974 | 340,000 tested, 0.031% active; active = rising FRET ratio curve, often small or poorly fitted; inconclusive = mostly compound fluorescence or quenching in the first reads; inactive = flat curves in all reads;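 note: potency is the fitted concentration of half-maximal effect; 0% = DMSO wells and 100% = buffer wells lacking importin beta; nearly all actives have a fitted effect of over 15% in size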
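FRET biosensor (snurportin 1 IBB flanked by EYFP and cerulean), 50 nM, with compound 5 min, then 0.125 microM importin beta in PBS, 1 mM DTT, 0.02% Tween-20, 0.1% BSA. CFP/YFP ratio read after 45 min at room temperature; pre-read flags interference.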
miR-21 FLuc: raises the signal of a miR-21 reporter | HeLa miR-21 FLuc reporter, luciferase, 48 h | Potency, µM (doses to about 38.3 µM), for the others: at the highest dose reporter change, positive = more light | 340,000 tested, under 10 active; active = well fitted rising curve with a large enough effect; inconclusive = small, poorly fitted or top-dose-only effect; inactive = no such curve, though single readings can be large or run the other way;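 note: % of control where 0% means no effect; miR-21 action dims this reporter so a rising signal means less miR-21 action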
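HeLa miR-21-FLuc reporter line, endogenous miR-21; 2000 cells/well in DMEM/10% FBS; compound titration up to ~40uM final, 48 h, 37 degree Celsius; luciferase detection reagent, 15 min lysis, CCD luminescence.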
GLA inh pH 4.5: inhibitors of human alpha-galactosidase A at pH 4.5. AID 1467. 230,000 tested, under 10 active. purified enzyme, 4-MU-alpha-Gal fluorescence, pH 4.5. P06280. activity change, negative = inhibition, % at 105 µM; inconclusive = small, poorly fitted or top-dose-only inhibition, or a rising curve; inactive = flat fitted curve, though single readings scatter; no compound was filed as active;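 note: 0% = full activity with enzyme and -100% = basal without enzyme; dose as in the result columns while the protocol names 77 µM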
Target sequence (P06280 whole entry, looked up): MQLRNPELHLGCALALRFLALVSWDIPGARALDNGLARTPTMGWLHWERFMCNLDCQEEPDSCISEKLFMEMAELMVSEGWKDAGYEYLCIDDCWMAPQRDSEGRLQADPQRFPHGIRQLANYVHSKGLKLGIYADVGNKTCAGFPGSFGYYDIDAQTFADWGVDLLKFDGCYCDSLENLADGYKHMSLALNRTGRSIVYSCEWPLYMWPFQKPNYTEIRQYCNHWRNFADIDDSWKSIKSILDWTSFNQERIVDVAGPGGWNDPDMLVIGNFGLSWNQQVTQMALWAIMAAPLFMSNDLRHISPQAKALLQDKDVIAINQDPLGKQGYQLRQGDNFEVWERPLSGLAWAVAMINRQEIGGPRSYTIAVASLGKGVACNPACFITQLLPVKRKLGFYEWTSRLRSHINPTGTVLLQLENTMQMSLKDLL
Rango dissoc inh: inhibition of RanGTP-driven Rango-importin beta dissociation; O95149+P62826; Biochemical FRET Rango-importin beta, RanGTP-induced dissociation; Potency, µM (series often up to 46.1 µM), inactives show top-dose activity change, negative = inhibition; 340,000 tested, 0.071% active; AID 540253; active means falling FRET ratio curve, often poorly fitted, with flat reads before Ran was added; inconclusive means other falling curves, or compound fluorescence or quenching; inactive means flat or rising ratio curve;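 note: potency is the fitted concentration of half-maximal effect; % of control where 0% means no effect; nearly all actives have a fitted effect of over 45% in size; -100% = wells without RanGTP and RCC1; the record marks most hits as doubtful in a second field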
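Rango FRET biosensor (snurportin-1 IBB flanked by N-terminal EYFP and C-terminal CFP10) at 0.1 uM, with 0.25 uM importin beta in PBS, 1mM DTT, 0.02% Tween-20, 0.1% BSA. 0.6 uM Ran, 2mM GTP and 0.2 uM RCC1 were then added for 45 min at room temperature. Inhibition read as loss of FRET rise.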
* = called active by the depositor; ? = inconclusive; nt = no result given; & = joins results of further samples; [ ] = remark or other dose. This is a subset, so the mix of outcomes need not match the whole.

SMILES	Rango complex inh	miR-21 FLuc	GLA inh pH 4.5	Rango dissoc inh
CCCCn1c(SCC(=O)N2CC(C)CC(C)C2)nc2cc(S(N)(=O)=O)ccc21 (stereo not given)	-1.5%	-1.1%	2.3	-11.3%
COc1ccc(CNCCC(c2ccc(F)cc2)c2ccc(OC)cc2)cc1 (stereo not given)	5.2%	?	-28.0	0.9%
C/C(N)=C(/C#N)C(=O)CSc1nc2ccccc2[nH]1	?	-48.9%	2.3	-17.4%
CCOc1ccccc1N(CC(=O)Nc1ccc2c(c1)OCCO2)S(C)(=O)=O	-2.5%	-4.7%	2.0	-4.8%
COCCn1nnnc1C(c1ccccn1)N1CCN(c2cccc(C)c2C)CC1 (stereo not given)	2.0%	-6.2%	-4.2	-1.2%
CCOC(=O)c1c(N)sc(-c2ccccc2)c1C	-0.1%	-60.7%	-14.1	7.2%
CCCCCCCNC(=O)C1(CC2CC(c3ccccc3)=NO2)CCN(C(=O)OC(C)(C)C)CC1 (stereo not given)	-5.1%	nt	nt	0.4%
C[C@]12c3[nH]c4ccccc4c3CCN1C(=O)C(CC(=O)NCCCn1ccnc1)C[C@@H]2C(=O)N1CCCCC1 (stereo not given in full)	-2.5%	nt	nt	-0.2%
CCn1nc(C)c(CN2CCC(n3nccc3NC(=O)Cc3ccccc3)CC2)c1C	-0.1%	0.5%	nt	-1.3%
NC(=O)c1ccc(N2CCC(C(N)=O)CC2)c([N+](=O)[O-])c1	0.0%	-3.6%	-5.8	0.2%
CC(C)NC(=O)Nc1ccc2c(c1)C(=O)N([C@H](C)CO)C[C@@H](C)[C@@H](CN(C)C(=O)NC1CCCCC1)O2	-1.7%	nt	nt	-9.0%
CCOc1ccc2c(C)cc(=O)oc2c1OCC	0.7%	-13.7%	1.8	-3.2%
COc1cc(C(=O)Nc2cc(-c3nc4cc(C)ccc4o3)ccc2C)cc(OC)c1OC	4.1%	-22.0%	10.8	35.8%
CC(C)NC(=O)C(=O)NNC(=O)CCc1ccccc1	3.9%	-9.3%	7.8	24.2%
CCOC(=O)C1=C(C)Nc2ncnn2C1c1ccc(N(C)C)cc1 (stereo not given)	?	-11.9%	-7.4	-12.1%&-13.1%
O=[N+]([O-])c1cccc(S(=O)(=O)N2CCN(S(=O)(=O)N3CCCCCC3)CC2)c1	2.1%	1.0%	nt	-2.8%
COc1cc(OC)cc(C(=O)Nc2ccc(S(=O)(=O)N3CCOCC3)cc2)c1	0.8%	15.9%	nt	-3.9%
CC(OC(=O)Cn1[nH]c(=O)c2ccccc2c1=O)C(=O)Nc1ccc(F)cc1 (stereo not given)	-2.2%	nt	nt	0.9%
N#CC1=C(N)C(C#N)(C#N)C(c2cccnc2)C2CC(c3ccccc3)CC=C12 (stereo not given)	?	?	-0.9	?
O=S(=O)(NCc1ccc2c(c1)OCO2)c1cccc2nsnc12	0.3%	5.6%	1.1	-6.1%
Nc1c(C(=O)Nc2ccccc2)sc2nc(-c3cccnc3)ccc12	nt	-44.4%	0.5	nt
Cc1cccc2cc(C#N)c(NCCNC(=O)COc3ccccc3)nc12	?	-1.3%	-17.8	?
CCOC(=O)c1ccc(Oc2coc3cc(O)ccc3c2=O)cc1	-1.8%	-28.1%	nt	11.9%
O=C(CSc1nnc(-c2ccco2)o1)N1CCN(c2ccccc2)CC1	-2.2%	-0.7%	-5.1	-12.0%
O=C(Nc1ccc(OCC(=O)N2CCOCC2)cc1)c1ccccc1F	2.8%	7.3%	nt	-9.0%
Later entries:
SMILES	Rango complex inh	miR-21 FLuc	GLA inh pH 4.5	Rango dissoc inh
COc1ccc2cc(C[C@@H]3CC[C@@H](CNC(N)=O)O3)ccc2c1	0.9%	nt	nt	6.3%
CN1CCN(C(=O)c2c(O)c3cccc4c3n(c2=O)CCC4)CC1	4.4%	0.8%	1.2	5.8%
COc1ccc(C(=O)N2CCc3ccccc32)cc1S(=O)(=O)N1CCOCC1	5.6%	nt	nt	0.9%
COc1ccccc1NC(=O)COC(=O)[C@@H]1CCCN1C(=O)c1cccs1	0.4%	-0.6%	-4.6	0.1%
Cc1n[nH]c(=O)c2c(NC(=O)CSc3ccc(F)cc3)oc(C)c12	-4.0%	nt	nt	-0.3%
O=C1CN(C(=O)CN2C(=O)NC3(CCCCC3)C2=O)c2ccccc2N1	-2.2%	-1.0%	1.3	-7.1%
COc1ccc(OC)c(C(=O)Nc2ccc3[nH]ccc3c2)c1	-3.2%	nt	nt	-11.4%
CCCCc1c(CCC)c(=N)c2ccccc2n1C	-1.5%	27.1%	-4.4	13.0%
O=C(Nc1cccs1)OCCN1CCN(Cc2ccccc2)CCC1=O	-1.2%	1.1%	-1.2	28.7%
O=C(Nc1nc2ccccc2[nH]1)c1ccccc1OC(F)F	?	10.3%	nt	27.0%
C/C(=N\NS(=O)(=O)c1ccc(C)cc1)c1cccs1	0.2%	-12.4%	-1.5	1.8%
Cc1ccc(CN2C(=O)CCC2C(=O)NCCCN2CCCC(C)C2)cc1 (stereo not given)	-0.1%	-8.8%	-4.2	1.9%
OC1(CNCc2ccccc2)C2CC3CC(C2)CC1C3 (stereo not given)	3.0%	-1.6%	-7.4	16.4%
CCn1c(CC(=O)Nc2ccc(C)c(Cl)c2)nnc1SCCOc1ccc(OC)cc1	4.3%	-1.0%	2.0	1.7%
CCN[C@H]1C[C@H](C)S(=O)(=O)c2sc(S(N)(=O)=O)cc21	0.2%	nt	nt	-17.2%
CC1CCN(Cc2nnnn2CCCC(=O)NC(c2ccccn2)C(F)(F)F)CC1 (stereo not given)	1.4%	-3.0%	nt	3.6%
O=C(COC(=O)C1CCC(N2C(=O)C3C4CCC(C4)C3C2=O)CC1)c1ccc(F)cc1 (stereo not given)	-1.2%	-3.0%	nt	-1.0%
c1csc(-c2noc(CN3CCN4CCCC4C3)n2)c1 (stereo not given)	-1.4%	-25.2%	6.4	-4.7%
COc1ccc(-c2nnn(CC(=O)N(c3cccc(O)c3)C(C)C(=O)NC3CCCC3)n2)cc1OC (stereo not given)	?	-5.9%	?	-14.6%
COC(=O)c1ccc(NC(=O)Cc2ccc(F)cc2)cc1	0.4%	-36.3%	0.3	-7.3%
CC(NCCOCCOc1ccccc1)c1ccccc1 (stereo not given)	-9.5%	-6.0%	-2.0	0.8%
NC(=O)COC(=O)CC(NC(N)=O)c1ccc(Cl)cc1 (stereo not given)	?	-10.7%	2.4	-3.1%
O=C(Oc1ccc(Cl)cc1)c1ccc(COC(=O)c2cnccn2)cc1	-2.3%	-5.2%	0.6	-10.0%
CC(=O)Nc1ccc(SCC(=O)c2cc(C)ccc2C)cc1	-1.4%	-11.9%	nt	43.9%
Cc1onc(-c2ccccc2)c1C(=O)N1CCN(c2ccc([N+](=O)[O-])cc2)CC1	-0.8%	nt	nt	-3.3%

Filtered by structure: the entries above containing a furan ring, fused or not (two)
SMILES	Rango complex inh	miR-21 FLuc	GLA inh pH 4.5	Rango dissoc inh
O=C(CSc1nnc(-c2ccco2)o1)N1CCN(c2ccccc2)CC1	-2.2%	-0.7%	-5.1	-12.0%
Cc1n[nH]c(=O)c2c(NC(=O)CSc3ccc(F)cc3)oc(C)c12	-4.0%	nt	nt	-0.3%

Later entries.
SMILES	Rango complex inh	miR-21 FLuc	GLA inh pH 4.5	Rango dissoc inh
N#CCCN1CCN(S(=O)(=O)c2ccc(S(=O)(=O)NC3CC3)cc2)CC1	1.2%	-3.7%	4.6	-2.7%
O=[N+]([O-])c1cccc(-c2csc(N/N=C/c3cccc(O)c3)n2)c1	-4.2%	12.4%	-1.8	1.1%
COc1ccccc1CNC(=O)CSc1nnc2ccc(-c3cccnc3)nn12	-5.3%	-6.7%	8.2	14.4%
O=C(c1cc([N+](=O)[O-])cc([N+](=O)[O-])c1)N1CCN(Cc2ccc3c(c2)OCO3)CC1	-0.4%	0.2%	4.4	-5.4%
COc1cc2c(cc1NC(=O)COC(=O)[C@@H](NS(=O)(=O)c1ccccc1)C(C)C)oc1ccccc12	0.6%	-9.9%	-15.5	-6.4%
COc1cccc2c(N/N=C/c3ccco3)cc(C)nc12	-1.1%	-35.0%	-1.9	11.2%
COCCOC(=O)C1=C(C)Nc2ncnn2C1c1ccco1 (stereo not given)	1.5%	-0.6%	-4.7	9.3%
Fc1ccc(NC(=S)Nc2ccccc2OC(F)F)cc1Cl	1.3%	?	3.3	6.2%
CC1(C)CC(=O)C(C2C3=C(CC(C)(C)CC3=O)OC3=C2C(=O)CC(C)(C)C3)=C(O)C1	6.2%	-1.3%	0.7	-8.4%
CN(c1ccc(C(=O)NCc2ccccn2)cc1)S(=O)(=O)c1ccc(Cl)cc1	-0.4%	4.2%	nt	21.6%
CC1CN(C(=O)C(c2ccccc2)c2ccccc2)CC(C)O1 (stereo not given)	-0.5%	7.5%	-3.4	-8.8%
C=CCSc1nc2sc(C)c(C)c2c(=O)n1N	0.3%	-11.4%	9.9	13.1%
CCOC(=O)c1cccc(Nc2nc(C)cc(C)n2)c1	2.3%	-30.7%	0.4	6.2%
O=C(OCc1nnc(-c2ccccc2)o1)c1ccc(CO)cc1	-1.7%	-3.9%	0.2	-10.7%
Cc1nc2sc(-c3ccccc3)cc2c(=O)n1/N=C/N(C)C	-3.0%	-73.8%	4.0	-1.3%
COc1ccc(/C=N/NC(=O)c2ccccc2[N+](=O)[O-])cc1CN1CCc2cc(OC)c(OC)cc2C1C (stereo not given)	-2.0%	-1.6%	-7.5[21.1 µM]	22.9%
Cc1ccnc(NC(c2ccccn2)c2c(C)[nH]c3ccccc23)c1 (stereo not given)	-2.9%	1.2%	5.2	0.3%
COc1ccc(-c2nc(CN3CCCCC3c3cccnc3)c(C)o2)c(F)c1 (stereo not given)	-0.7%	-10.9%	-0.6	-17.2%
CC(=O)N/C(=C\c1ccccc1)C(=O)Nc1ccccc1C	3.4%	-6.6%	3.5	0.2%
COC(=O)c1ccc(NC(=O)C2CCCN(S(=O)(=O)c3cnc[nH]3)C2)cc1 (stereo not given)	-0.6%	-10.2%	-4.6	2.7%
CCOC(=O)C1=C(C)N=C2SC=C(C)N2C1c1ccc(OC)cc1 (stereo not given)	?	11.2%	-1.0	?
Cc1ccc(C(=O)Nc2sc3c(c2C(=O)O)CCC(C)C3)o1 (stereo not given)	4.2%	nt	nt	28.4%
Fc1ccc(/C=N/Nc2ncnc3nc[nH]c23)cc1F	0.2%	-118.3%	5.0	9.4%
COc1cccc(OC)c1C(=O)N1CCN=C1SCc1cccnc1	0.1%	-6.4%	-2.2	8.3%
COc1ccc(S(=O)(=O)N2CCOC2CNC(=O)C(=O)NCCc2ccc(OC)c(OC)c2)cc1C (stereo not given)	-2.0%	14.6%	10.0	2.6%
Other entries
SMILES	Rango complex inh	miR-21 FLuc	GLA inh pH 4.5	Rango dissoc inh
CC(=O)c1ccc(N2CCN(C(=O)CCNC(=O)Cn3ccc4ccccc4c3=O)CC2)cc1	1.4%	12.5%	nt	11.7%
CCCCNC(=S)N1CCN(c2ccccc2Cl)CC1	-0.2%	-3.5%	-0.4	8.4%
CC1CCN(CCn2c(=S)[nH]c3ccccc3c2=O)CC1	-2.9%	-7.9%	nt	12.4%
O=C(O)Cc1ccccc1C(=O)O	0.5%	2.6%	0.3	8.6%
COc1ccc(Cl)cc1S(=O)(=O)N1CCN(C(=O)COc2ccccc2)CC1	0.4%	-11.8%	-3.5	7.8%
C#CCSc1nc2sc3c(c2c(=O)n1C)CCC3	1.3%	0.0%	nt	1.7%
CCN(CC)CCNc1nc(C(F)(F)F)nc2c1nnn2Cc1ccccc1	-0.4%	2.4%	nt	-4.9%
CCOC(=O)c1c(C)[nH]c(C)c1C(=O)COC(=O)c1ccc(Cl)c(S(=O)(=O)NCc2ccccc2)c1	0.2%	-1.7%	-9.6	18.0%
CC(C)Sc1oc(-c2ccco2)nc1S(=O)(=O)c1ccc(F)cc1	?	-10.4%	-12.8	?
CC1CN(CCc2ccccc2)C(C)C/C1=N/O (stereo not given)	-0.9%	nt	nt	-3.4%
CCC(Sc1ncccc1C(=O)O)C(=O)N1CCOCC1 (stereo not given)	6.1%	-3.6%	-2.8	2.2%
CS(=O)(=O)N(CC(=O)O)c1cc(C(F)(F)F)ccc1Cl	?	nt	nt	0.2%
